Bead autofluor = flagged as autofluorescent in microsphere protease counterscreen. compound autofluorescence counterscreen, microsphere flow cytometry; hits give high values. fluorescence intensity (concentration not given with the values). 3.1% of 360,000 active;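 active means at least 3 SD above the mean of all compounds, about 16000 in these data; inconclusive means too few beads counted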;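 further: 100 nL of 1 mM stock went into each well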
BJeLR lethal = kills HRASV12-expressing BJeLR cells; BJeLR (HRASV12) viability, CellTiter-Glo ATP luminescence, 48 h; reference of the scale not given here; inhibition, % (no concentration beside the values); 0.17% of 300,000 active;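 active means replicate mean above 50%; inconclusive means above 50% but judged a plate artefact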;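 further: 50 nL library stock added to about 25 µL; numbers are from one replicate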
Sa RN4220 lethal = S. aureus RN4220 growth inhibition | AID 1259311 | 0.33% of 330,000 active | inhibition, % (concentration not given with the values) | OD600, 16 h;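 active means z-score of -3 or lower and OD600 up to 0.18 on both plates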;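 further: plate controls were untreated cells for no effect and reference antibiotic for full effect; stock transfer was 100 nL into about 80 µL; one replicate is shown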
PrP UTR inh = suppresses PrP 5' UTR mRNA reporter expression | cell-based PrP 5' UTR mRNA reporter, plate reader | inhibition, % (concentration not given with the values) | 0.35% of 340,000 active;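 active means every replicate at 50% or more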;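 further: 0 = median of the neutral control wells; tested in H4 reporter cells; numbers are from one replicate; inactives centre near -14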
Mtb hypoxia rep = Mtb hypoxia fluorescent reporter inhibition; M. tuberculosis hypoxia-regulated fluorescent reporter, fluorescence; fluorescence inhibition, % (no concentration beside the values); 0.1% of 300,000 active;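 active means 35 to 45% if threefold the growth effect, above 45% if 1.5-fold the growth effect; inactive means the rest, general growth blockers included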;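 further: wells of about 50 µL received 100 nL stock; 0% = vehicle wells and 100% = reference inhibitor wells; whole bacteria with a GFP reporter of the hypoxia response; strong numbers were not always called active; many hits fall short of the cut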
Sa ugtP lethal = compounds lethal to S. aureus RN4220 ugtP deletion mutant | growth inhibition, % (test concentration not listed) | OD600 growth, 16 h; some inactives read as strong as hits | AID 1259309 | 0.54% of 330,000 active;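 active means z-score under -3 and OD600 up to 0.15 on both plates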;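 further: plate controls were untreated wells for no effect and antibiotic for full effect; wells of about 80 µL received 100 nL stock; the first replicate is given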
Mtb hypoxia rep growth = also measured in Mtb hypoxia rep; calls as there; growth inhibition, %; measured here: M. tuberculosis growth (absorbance);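 0% = vehicle and 100% = reference antibiotic; read after six days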
An asterisk follows results filed as active; ? = inconclusive; . = no result given. Outcome played no part in choosing rows. About 4% of those tested had a hit in this group.

SMILES	Bead autofluor	BJeLR lethal	Sa RN4220 lethal	PrP UTR inh	Mtb hypoxia rep	Mtb hypoxia rep growth	Sa ugtP lethal
COc1cc(NC(=O)c2cccs2)c(C(=O)OCC(=O)NCc2ccccc2)cc1OC	3138	2.0	3.7	-9.3	.	.	-7.5
CCOc1ccccc1N(CC(=O)NCC1CCCO1)C(=O)CCC(=O)Nc1nccs1 (configuration not stated)	3569	-6.4	1.7	-13.2	12.6	7.6	3.6
Cc1ccc(N2C(=O)[C@@H]3C(c4cccnc4)=NO[C@@H]3C2=O)cc1	4340	14.3	0.4	.	9.9	3.5	5.0
O=[N+]([O-])c1ccc(Cl)cc1NCc1cccnc1	4411	-3.1	0.0	-8.6	6.7	3.5	-12.8
CCOC(=O)C1CCN(C(=O)c2ccc(Oc3cc(Cl)cc(Cl)c3)o2)CC1	5448	-2.8	9.3	-25.3	10.9	9.5	-6.9
Cc1ccc(NC(=O)Cn2c([N+](=O)[O-])cnc2C)cc1Cl	3630	10.2	1.7	7.3	1.3	5.1	3.1
CC1(O)N(CCC(=O)Nc2cccc(F)c2)C(=O)OC12CCCCC2 (configuration not stated)	3370	8.0	4.8	-16.2	-2.5	12.2	3.2
CCOc1ccccc1N1CCN(C2=C(NS(=O)(=O)c3cccs3)C(=O)c3ccccc3C2=O)CC1	2804	10.5	34.9	-17.6	-1.7	4.7	22.5
O=C(O)CCCN=CC1=C(O)C(C(=O)c2ccccc2)CCC1=O (configuration not stated)	3451	3.5	6.9	-11.1	.	.	0.6
CC(OCC(O)CN(C)CCOc1ccccc1)c1ccc(Cl)cc1 (configuration not stated)	9030	-7.2	3.6	-20.0	8.9	13.2	-11.3
O=C(c1cc2c(ccc3ccccc32)o1)N1CCCCC1	5828	12.7	4.2	-100.7	9.7	6.4	1.6
CCOc1ccc(NC(=O)CNC(=O)c2ccc(OC)cc2)cc1	6011	3.9	0.2	-0.7	-2.3	-0.7	1.8
CCOC(=O)CCC(=NNC(N)=O)c1ccc(OC)c(Cl)c1	.	.	3.4	.	8.6	-0.6	-2.4
CCCc1cc(=O)n(-c2nc3ccccc3s2)[nH]1	3893	6.1	14.8	-9.0	-3.6	-4.5	8.6
O=C(COC(=O)Cc1ccsc1)Nc1ccc(S(=O)(=O)N2CCOCC2)cc1	2483	2.5	4.6	-13.7	5.9	-1.7	6.3
N#Cc1cn(CCOc2ccc(F)cc2)c2ccccc12	2526	-2.6	-8.0	-30.9	12.6	5.2	-25.1
COc1ccc(NC(=O)C2CCCN(S(C)(=O)=O)C2)cc1Cl (configuration not stated)	3649	-6.5	0.1	-9.2	7.0	7.0	2.2
O=C(NN=Cc1ccccc1)c1cc[n+]([O-])cc1	.	.	1.2	.	14.9	5.6	7.3
N#CCCN(Cc1ccccc1)C(=S)NC(=O)c1ccccc1	21936*	12.9	8.8	-6.4	1.1	8.2	3.3
COc1ccc(N2CCN(C(=O)Nc3ccc(S(=O)(=O)N(C)C)cc3)CC2)cc1	3773	2.5	0.5	-20.7	4.0	-6.7	5.6
Cc1ccc(/C=N/Nc2cccc3cccnc23)c(O)c1	8215	-2.0	.	-82.4	.	.	.
CCOc1ccc(NC(=O)CSc2nnc(-c3cc(C)[nH]n3)n2N)cc1	6067	-10.0	2.7	-1.9	2.5	1.5	5.5
C=CCn1c(=O)c(C(=O)Nc2ccc(C)cc2)c(O)c2ccccc21	3533	-4.8	-3.0	-58.4	1.3	8.0	10.7
COc1cc(/C=N\NC(=O)C(C)(C)O)ccc1OC/C=C/c1ccccc1	5574	-6.9	.	-1.4	.	.	.
CC1(c2ccccc2Cl)NC(=O)N(CC(=O)N2c3ccccc3NC(=O)C2(C)C)C1=O (configuration not stated)	2984	.	2.7	-8.3	1.7	-7.8	3.2
CC(C)c1ccc2c(c1)C(c1cccs1)=NNC(c1ccncc1)=N2	4586	21.5	1.8	-15.0	17.6	5.5	-1.8
Cc1ccc(C)c(N(CC(=O)NC2CCCC2)C(=O)CCC(=O)Nc2cc(C)on2)c1	3240	5.7	6.9	-8.4	12.0	2.4	0.8
Cc1cccc(C(=O)OCC(=O)N2CCCC2=O)c1O	4691	.	2.0	9.5	6.9	0.1	3.1
CC(=NN1CCN(Cc2ccc(Cl)cc2)CC1)c1ccc([N+](=O)[O-])cc1	.	.	3.1	.	-2.7	-3.0	-7.5
Fc1ccc2cnc(-c3ccccc3F)cc2c1	3809	.	11.2	-43.2	4.2	3.1	2.5
COc1cccc(NC(=O)CCCn2nc(C)c3c(C)n(-c4ccccc4)nc3c2=O)c1	6128	-17.9	2.9	-1.9	10.1	0.6	4.1
COc1ccc2oc(=O)cc(CN3CCN(Cc4ccc(OC)c(OC)c4OC)CC3)c2c1	3886	4.8	-1.2	-28.6	2.0	0.4	7.9
C=C(C)CN(CC)C(=O)COc1ccc(S(=O)(=O)Nc2ccc(OC)cc2)cc1	5479	-4.2	-1.6	-19.1	5.4	-0.3	-0.8
COc1cc(Cl)ccc1OCc1cc(C(=O)N2CCCCC2c2cccnc2)no1 (configuration not stated)	4424	5.4	-3.4	-22.9	-2.3	12.8	-10.2
CCn1c(CNC(C)=O)nnc1SCC(=O)c1ccc(Br)cc1	6899	-5.5	4.3	-8.8	6.1	-5.3	10.7
CCN(CC1CCCN(CCc2cccc(OC)c2)C1)C(=O)C=C(C)C (configuration not stated)	4151	-6.7	1.4	-18.5	-7.7	0.0	2.8
CCCCc1nc2c(C)c(N)cnc2n1Cc1cccc([N+](=O)[O-])c1	3890	-3.2	4.5	-15.1	-1.2	3.7	-1.3
O=C(NCc1cccc(Cl)c1)c1cc(COc2ccc3ncccc3c2)on1	4765	-0.4	3.4	-14.9	2.1	10.7	7.9
C=CCN=C1NN=C(c2cc(C)n(CCOC)c2C)CS1	2661	20.2	5.7	46.1	15.6	3.5	2.4
O=C(OCC1OC(n2ccc(=O)[nH]c2=O)C(O)C1OC(=O)c1ccccc1)c1ccccc1 (configuration not stated)	3771	-3.8	0.5	-14.1	13.5	7.2	22.7
O=C(C[n+]1cccc2ccccc21)c1ccc(NC(=O)c2ccccc2)cc1	8759	-17.8	5.4	-3.8	-0.7	10.9	-2.1
COc1ccc(CCNC(=O)C2CCN(S(=O)(=O)c3ccc(C)cc3)CC2)cc1	3872	-6.4	-1.8	-18.3	1.6	11.8	-0.1
Cc1cc(C)cc(OCC(=O)Nc2ccccc2C(=O)NCc2ccco2)c1	4388	-4.0	4.4	-4.9	7.2	0.6	0.9
Cc1ccnc2nc(C(=O)NCCc3ccc(F)cc3)nn12	2230	-7.4	6.6	-3.8	.	.	4.8
CSc1ccc(CCNC(=O)CCc2nnc3ccc(N4CCOCC4)nn23)cc1	4159	-2.2	0.8	4.3	3.7	-3.2	6.0

Limited to Sa RN4220 lethal and PrP UTR inh (five entries from above):
| canonical_smiles | Sa RN4220 lethal | PrP UTR inh |
| --- | --- | --- |
| O=C(C[n+]1cccc2ccccc21)c1ccc(NC(=O)c2ccccc2)cc1 | 5.4 | -3.8 |
| Cc1cc(C)cc(OCC(=O)Nc2ccccc2C(=O)NCc2ccco2)c1 | 4.4 | -4.9 |
| COc1cc(Cl)ccc1OCc1cc(C(=O)N2CCCCC2c2cccnc2)no1 (configuration not stated) | -3.4 | -22.9 |
| O=C(NCc1cccc(Cl)c1)c1cc(COc2ccc3ncccc3c2)on1 | 3.4 | -14.9 |
| COc1cccc(NC(=O)CCCn2nc(C)c3c(C)n(-c4ccccc4)nc3c2=O)c1 | 2.9 | -1.9 |

More records follow.
SMILES	Bead autofluor	BJeLR lethal	Sa RN4220 lethal	PrP UTR inh	Mtb hypoxia rep	Mtb hypoxia rep growth	Sa ugtP lethal
COc1ccc(C(=O)OCC(=O)NCCCc2ccccc2)cc1[N+](=O)[O-]	4317	6.1	6.8	-11.2	15.4	15.0	1.6
Cc1ccc(CCNC(=O)c2cc(S(=O)(=O)N3CCCC3)cn2C)cc1	4450	2.4	-4.8	-3.2	-6.1	3.1	-3.2
COc1cc(NC(=O)c2cc(-c3cccnc3)nc3ccc(Br)cc23)cc(OC)c1	4404	-0.5	-17.2	7.7	7.6	5.7	-10.3
Cn1c(NNC(=O)CCC2CCCCC2)cc(=O)n(C)c1=O	6186	-4.7	2.5	-14.0	9.6	7.5	6.0
CN(C(=O)COC(=O)c1ccc(Cl)c(S(=O)(=O)NCc2ccccc2)c1)C1CCS(=O)(=O)C1 (configuration not stated)	?	.	4.4	-12.7	3.8	-1.7	1.5
O=C(CCC(=O)OCC(=O)c1ccccc1)Nc1cccc(Cl)c1	2435	5.7	2.3	-12.7	9.6	9.7	1.7
CCOc1ccccc1NC(=O)c1csc(C)c1C	4009	6.6	4.5	-20.1	8.8	7.8	4.7
CCOC(=O)C1C(=O)NC(c2ccccc2)=NC1c1ccc(O)c(OC)c1 (configuration not stated)	4497	-4.6	1.4	-10.7	1.5	3.6	1.6
CCOC(=O)c1ccc(NCc2cccnc2)cc1	3732	-3.8	4.6	-15.6	7.8	10.0	2.3
CCOC(=O)C1=C(O)/C(=C\c2ccc(CNC(=O)C(=O)Nc3ccccc3)o2)N=C1C	3155	7.5	.	-30.1	.	.	.
O=C(c1cccc(Cl)c1)C1CCCN(S(=O)(=O)c2ccccc2)C1 (configuration not stated)	7194	-1.3	6.4	-23.0	5.2	-1.5	6.4
Cc1cccn2c(=O)c3cc(S(=O)(=O)c4ccccc4)c(=N)n(Cc4ccco4)c3nc12	3245	-16.5	2.1	-25.3	-5.0	0.2	-12.0
COc1cc(C(NC(C)=O)NC(C)=O)ccc1OCc1ccccc1	4350	1.4	4.3	-20.2	16.8	13.3	-3.1
Cc1c(C#N)c2ccccc2n1CC(=O)N1CCCC1	2971	5.2	2.7	-22.4	.	.	9.2
COCCNC(=S)N1CCc2cc(OC)c(OC)cc2C1COc1ccc(C(C)C)cc1 (configuration not stated)	2582	1.3	3.4	-4.9	4.0	5.6	16.7

Complete entries from above.
CCOc1ccccc1NC(=O)c1csc(C)c1C is entered as Bead autofluor = 4009; BJeLR lethal = 6.6; Sa RN4220 lethal = 4.5; PrP UTR inh = -20.1; Mtb hypoxia rep = 8.8; Mtb hypoxia rep growth = 7.8; Sa ugtP lethal = 4.7
COc1cc(NC(=O)c2cc(-c3cccnc3)nc3ccc(Br)cc23)cc(OC)c1 is entered as Bead autofluor = 4404; BJeLR lethal = -0.5; Sa RN4220 lethal = -17.2; PrP UTR inh = 7.7; Mtb hypoxia rep = 7.6; Mtb hypoxia rep growth = 5.7; Sa ugtP lethal = -10.3

Remaining list, next part.
SMILES	Bead autofluor	BJeLR lethal	Sa RN4220 lethal	PrP UTR inh	Mtb hypoxia rep	Mtb hypoxia rep growth	Sa ugtP lethal
O=C(O)CCCn1cc(NC(=O)c2cccc(F)c2)cn1	4115	5.6	-0.6	-6.2	1.5	3.4	5.0
Nn1c(Cc2cccc3ccccc23)nnc1SCC(=O)NCC1CCCO1 (configuration not stated)	4763	-4.0	-0.5	-0.1	0.2	-4.4	-0.2
Cc1sc(N2C(=O)C3C4C=CC(C4)C3C2=O)c(C#N)c1C (configuration not stated)	2547	-7.8	4.6	-13.8	4.8	13.8	-1.9
Cc1ccccc1C(=O)N1CCC(C(=O)N(C)CC(=O)Nc2cccc(F)c2)CC1	5580	5.5	4.6	-12.2	0.2	1.5	8.4
O=C(O)c1cccc(-c2ccc(C=Nn3cnnc3)o2)c1	.	.	5.5	.	6.7	-6.4	15.5
Cc1nc2nc[nH]n2c(=O)c1CCOC(=O)c1c(F)cccc1F	3931	4.9	3.7	-6.0	1.9	5.9	4.4
CCc1cccc(NS(=O)(=O)c2ccc3c(c2)N(C)CCO3)c1	5050	5.3	4.0	-16.1	2.8	7.6	3.2
COc1ccccc1NC(=O)CSc1nnc(Cc2cccs2)n1C	6234	-8.6	2.8	-9.4	-1.5	3.4	0.8
Cc1c(C(=O)OCC(=O)N(C)Cc2ccc(Cl)cc2)oc2ccccc12	5059	.	4.8	-19.4	9.4	21.7	0.9
OCc1ccccc1SSc1ccccc1CO	.	11.4	3.1	.	6.8	-2.0	17.8
CCOCCCNS(=O)(=O)c1ccc(NC(=O)c2ccc([N+](=O)[O-])cc2Cl)cc1	10488	13.3	8.8	-39.0	1.3	1.0	-5.1
O=C(NCCN1C(=O)S/C(=C\c2cccnc2)C1=O)C1=NN(c2ccccc2)C(=O)CC1	3922	0.8	5.1	-5.6	9.2	0.5	3.3
O=C(NNC(=O)c1ccc([N+](=O)[O-])cc1C(=O)O)c1ccncc1	4210	-6.6	4.1	-27.9	11.7	7.5	4.2
COc1ccc(C=NNC(=O)c2cccc(NC(=O)c3ccccc3Cl)c2)cc1OC	.	.	5.8	.	9.0	8.6	8.0
